# Screening results from PubChem BioAssay.
# Env fusion inh – blocks HIV Env-driven cell-cell fusion. AID 651610. actives 1.1% (n = 360,000). HeLa-JRFL Env/CEM21 cell fusion, luciferase. inhibition, % at 12.3 µM;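 active = mean replicate inhibition score of at least 50 and every replicate individually at or above 50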;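 note: 0% = plate neutral controls and 100% = maraviroc near 300 nM; one replicate is shown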
# MT1-MMP act inh – blocks activation of human MT1-MMP | P50281 | HT1080 RFP-PRO-GFP cells, GFP/RFP ratio fluorescence, overnight; percent of plate control window, DMSO zero | AID 651647 | GFP/RFP ratio change, % at 20 µM | actives 0.061% (n = 360,000);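 active = GFP/RFP ratio change of at least 30% with cell ATP level not reduced by more than half and red fluorescence within 50% of control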; note: strong numbers were not always called active
#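 Assay system: RFP-PRO-GFP reporter HT1080 cells; read-out basis: GFP/RFP fluorescence ratio; benchmarks: DMSO wells and RFP-L50D-GFP cells; doses: 20 µM single dose, 1% DMSO; schedule: overnight cell settling, then overnight compound exposure, 37 °C, 5% CO2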
# CSC inhib – cancer stem cell inhibition; AID 2717; cancer stem cell-like cells viability, luminescence; actives 1.1% (n = 300,000); inhibition, % at 7.5 µM;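 active = mean at 75% or more and at least half the replicates too; tested in HMLE shEcad cells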;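 note: 0% = median of negative and 100% = median of positive control wells; the first replicate is given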
# UUG fidelity – yeast start codon fidelity modulation. S. cerevisiae UUG-firefly luciferase reporter, luminescence/redox ratio. activity score, % at 18.7 µM. actives 0.13% (n = 350,000);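 active = replicate mean at a twofold rise or more, about +100% in these data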;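 note: firefly luciferase made from a UUG start codon reports start codon fidelity; reporter light over untreated wells divided by growth signal over untreated wells; some hits fall short of that in this replicate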
# eIF4H FP inh – inhibitors of RNA binding by human eIF4H | AID 2012 | eIF4H fluorescence polarization binding assay | Q15056 | inhibition, % at 35 µM | actives 0.94% (n = 290,000);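 active = 50% or more with normal probe brightness, or confirmed in later tests; about a fifth of its hits are not listed in these tables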;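 note: calls also rest on retests at 20 µM and on dose response follow-up; 0% = protein and probe with vehicle and 100% = probe without protein; strong numbers were not always called active; many hits fall short of the cut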
# PABP polyA inh – blocks human PABP binding to poly(A) RNA; P11940; fluorescence polarization; inhibition, % at 35 µM; actives 1% (n = 290,000); AID 2014;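 active = 50% or more with normal probe brightness, or confirmed in later tests; about a fifth of its hits are not listed in these tables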;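 note: calls also rest on retests at 20 µM and on dose response follow-up; controls were probe without protein and protein plus probe with vehicle; some compounds called inactive have numbers as strong as hits; many hits fall short of the cut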
# Target sequence (P11940 whole entry, looked up): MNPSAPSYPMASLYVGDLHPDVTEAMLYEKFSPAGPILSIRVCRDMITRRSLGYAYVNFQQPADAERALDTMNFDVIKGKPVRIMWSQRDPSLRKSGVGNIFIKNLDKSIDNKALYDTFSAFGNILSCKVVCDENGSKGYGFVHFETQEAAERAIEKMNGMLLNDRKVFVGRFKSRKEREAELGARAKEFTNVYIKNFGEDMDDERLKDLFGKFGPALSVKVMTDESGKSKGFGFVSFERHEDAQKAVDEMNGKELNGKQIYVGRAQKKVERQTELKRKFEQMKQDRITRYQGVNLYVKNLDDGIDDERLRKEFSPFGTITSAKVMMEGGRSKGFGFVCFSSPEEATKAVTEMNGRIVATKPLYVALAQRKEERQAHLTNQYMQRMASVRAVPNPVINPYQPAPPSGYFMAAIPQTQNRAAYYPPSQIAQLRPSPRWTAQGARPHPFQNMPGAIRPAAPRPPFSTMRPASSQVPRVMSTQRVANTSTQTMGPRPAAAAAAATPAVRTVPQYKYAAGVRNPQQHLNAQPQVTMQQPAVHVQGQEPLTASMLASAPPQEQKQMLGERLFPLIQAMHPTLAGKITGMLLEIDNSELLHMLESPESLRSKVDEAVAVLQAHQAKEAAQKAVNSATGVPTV
# Rce1 inh – blocks yeast Ras-converting enzyme; Q03530; yeast membranes, quenched prenylated peptide cleavage fluorescence; calls only; actives 0.27% (n = 290,000); AID 2563;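 active = fall in fluorescence gain of 50% or more versus controls, with final raw signal at or below 3038400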;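 note: plate controls were neutral control wells for no effect and wells lacking membranes for full effect; tested at 10 µM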
# eIF4H FP inh retest – further read-out of eIF4H FP inh, marked with its call; inhibition, %; compound at 20 µM; confirmation average;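 mean of two retest wells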
# PABP polyA inh retest – further read-out of PABP polyA inh, marked with its call; inhibition, %; compound at 20 µM; confirmation repeats;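 mean of two retest wells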
# MT1-MMP act inh RFP – further read-out of MT1-MMP act inh, marked with its call; RFP signal change, %; measured here: RFP expression control read;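 0 = vehicle wells; hits needed this value within 50% of zero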
# * hit, by the source's call; i = inactive; x = no result given.
SMILES,Env fusion inh,MT1-MMP act inh,MT1-MMP act inh RFP,CSC inhib,UUG fidelity,eIF4H FP inh,PABP polyA inh,Rce1 inh,others
Cc1cc(C)c(/C=N/NC(=O)c2nnn(-c3nonc3N)c2CN2CCC(C)CC2)c(C)c1,9.9,-4.2,-12.6,-7.3,2.9,-8.4,3.3,i,
O=C(O)[C@@H]1CCCN1C(=O)c1ccccc1N1C(=O)[C@@H]2Cc3c([nH]c4ccccc34)C(c3cccc(Cl)c3)N2C1=O (some centres undefined),x,-1.3,5.5,-5.7,-22.2,4.0,4.9,i,
COc1ccc(CN2CCN(Cc3ccc4cc(F)ccc4n3)CC2CCO)c(C)c1C (centres undefined),23.9,x,x,3.7,-18.5,-8.9,-8.4,i,
COc1ccc(C2=NN(c3ccccc3)C(c3ccc(OC)c(OC)c3)C2)cc1 (centres undefined),-25.7,7.0,-3.7,10.2,-15.2,-13.9,-14.0,i,
CCNc1nc(OC)nc(SCC(N)=O)n1,x,-0.9,3.0,x,-6.0,2.6,0.2,i,
CS(=O)(=O)c1ccc(Cl)c(NC(=O)CCCSc2ccccc2)c1,-2.7,1.8,0.7,-8.9,-0.8,-4.7,10.1,i,
Cc1ccc(N=N/C(=C\O)C(=O)c2ccncc2)cc1,x,-0.8,-5.2,19.8,x,-3.4,-6.0,i,
Cc1ccc(C(=O)N2CCN(c3ccccc3)CC2)cc1S(=O)(=O)N1CCOCC1,-7.0,1.6,-2.8,-2.1,0.2,-14.3,-1.5,i,
Cc1ccc(S(=O)(=O)NCc2ccccn2)cc1C,1.2,4.8,2.1,-9.8,-18.3,-8.0,9.5,i,
CCCCCCc1c(O)nc(SCC(=O)O)[nH]c1=O,-2.3,2.0,2.9,-1.7,-12.7,-2.9,18.0,i,
CC(C)(O)c1cc2ccc(C#CCCN3C(=O)c4ccccc4C3=O)cc2c(=O)o1,-12.7,-5.8,1.3,10.5,-10.9,x,x,x,
CC(C)Cn1c(SCC(=O)N2CCc3ccccc3C2)nc(O)cc1=O,-7.1,-2.5,2.4,0.3,-12.1,x,x,x,
O=C(Nn1cnnc1)c1ccccc1CCc1ccccc1,x,1.9,5.9,1.1,-13.6,10.3,-3.7,i,
CCc1ccc(OCC(=O)N/N=C\c2ccco2)c([N+](=O)[O-])c1,2.9,6.0,5.5,-11.5,-10.3,68.4,7.0,i,eIF4H FP inh retest=-3.7;PABP polyA inh retest=22.0
C=CCn1c(-c2ccco2)n[nH]c1=S,x,3.7,6.6,-2.0,15.0,-0.5,14.6,i,
COC(=O)c1cc(Br)c(=O)n(CCc2ccc(O)cc2)c1,x,-0.2,0.3,-11.4,-14.0,-5.9,-2.9,i,
COc1ccc(N2CCN(CCNC(=O)c3ccc4nc5ccccc5c(=O)n4c3)CC2)cc1,2.1,2.7,-2.4,x,-16.5,5.8,0.5,i,
OC1(c2ccc(Cl)cc2)CCN(Cc2cn[nH]c2-c2ccccc2)CC1,11.4,6.2,3.1,x,-1.1,6.5,6.1,i,
CC(=O)Nc1ccc(NC(=O)C2CCN(c3ccc(C(F)(F)F)cn3)CC2)cc1,15.5,4.0,-8.9,-5.6,x,5.5,-5.0,i,
Cc1ccc2c(c1)N(C(=O)CCC(=O)N1CCN(c3ccccc3)CC1)CCO2,-25.6,1.6,-2.5,-7.7,-3.5,-4.5,3.0,i,
CCN(CC(=O)Nc1c(F)cccc1F)C(=O)CN1C(=O)C2CCCCC2C1=O (centres undefined),8.0,-1.9,1.6,x,12.0,x,x,x,
c1ccc(CN2c3ccccc3-c3nc4ccccc4n3C2c2ccccn2)cc1 (centres undefined),-53.4,-0.8,-7.1,x,-7.0,-9.2,-9.6,i,
CCOC(=O)Cc1cc(=O)n(-c2nc3ccccc3s2)[nH]1,x,1.7,3.0,30.8,-30.5,69.7*,67.9*,i,
O=c1cc(N2CCN(c3ccc(F)cc3)CC2)[nH]c(=O)n1C1CCCCC1,x,-1.1,-3.1,65.8,-21.1,1.1,-6.4,i,
Cn1c(=O)c2nc(-c3ccccc3)oc2c2ccccc21,-217.1,-9.2,0.1,-15.4,11.7,-5.2,7.3,i,
SMILES,Env fusion inh,MT1-MMP act inh,MT1-MMP act inh RFP,CSC inhib,UUG fidelity,eIF4H FP inh,PABP polyA inh,Rce1 inh,others
CCOC(=O)N1CCN(C(=O)CNCc2cccs2)CC1,-6.1,5.9,-3.4,-16.7,-13.8,10.2,2.1,i,
O=C(CNC(=O)c1cccs1)OCC(=O)c1cccs1,25.5,2.8,1.9,-5.3,-19.8,-1.5,8.4,i,
O=C(COC(=O)c1cc(Br)ccc1O)NNC(=O)c1ccc(Cl)cc1,-325.1,1.0,4.5,-1.3,2.0,x,x,i,
NNc1ccc2nnc(C(F)(F)C(F)(F)C(F)(F)F)n2n1,7.6,0.5,3.4,x,x,-4.2,-6.8,i,
CC(C)CCN1CCN=C1N(C)C,6.8,-0.9,3.6,4.8,-15.5,x,x,x,
COc1ccc(-c2csc(NC(CO)c3nc4ccccc4n3CCCO)n2)cc1 (centres undefined),6.4,3.4,-7.3,-9.6,-21.1,x,x,i,
CC1(C)CC[C@]2(C(=O)O)[C@H](O)C[C@]3(C)C(=CCC4[C@@]5(C)C[C@H](O)[C@H](O)[C@@](C)(CO)C5CC[C@]43C)[C@@H]2C1 (some centres undefined),x,-3.8,6.6,-4.4,-1.4,x,x,i,
Cc1ccc(NC(=O)C2CCCN2C(=O)NC2CCCCC2)cc1F (centres undefined),9.6,-2.3,-0.3,3.7,-13.3,-5.8,-6.2,i,
OC(CN1CCCCC1)Cn1c2ccccc2c2ccccc21 (centres undefined),7.0,1.2,2.9,4.2,-9.1,9.8,7.6,i,
CCc1nc(OCCN(CC)CC)c2oc3ccccc3c2n1,-15.6,-0.2,-1.6,-3.2,-6.7,1.0,17.0,i,
CC1CCCC(C)N1c1nnc(NC(=O)Cn2c(=O)oc3ccccc32)s1 (centres undefined),-12.4,4.3,-0.3,-17.9,-25.0,-16.9,-9.0,i,
NS(=O)(=O)c1ccc(CCNc2ncnc3sccc23)cc1,48.8*,-4.2,-15.7,1.5,-19.7,4.7,2.1,i,
O=C(c1ccc(Cl)cc1)N1CCN(c2ccc(F)cc2)CC1,-3.0,-1.9,-6.3,-3.8,-17.9,4.0,-11.0,i,
CC(C)[C@H](NS(=O)(=O)c1ccccc1)C(=O)Nc1nccs1,x,-1.8,9.2,-9.6,-20.8,x,x,x,
Cc1c(NC(=O)COc2cccc(Br)c2)c(=O)n(-c2ccccc2)n1C,-17.3,0.6,-0.3,7.7,-7.2,-18.2,3.5,x,
Cc1ccsc1C(=O)N1CCC1(C)C(=O)Nc1ccc2c(c1)OCCO2 (centres undefined),0.0,4.0,0.2,x,1.6,x,x,x,
CCCc1cc(=O)[nH]c(SCC(=O)N(Cc2ccccc2)C(C)C)n1,-24.4,-4.7,0.0,2.7,-3.5,-4.1,-11.8,i,
OCCNc1c2ccccc2nc2c(F)c(F)c(F)c(F)c12,-122.5,-57.4,-2.9,8.0,x,-2.9,-18.7,i,
COc1ccc(S(=O)(=O)NCCOc2ccc(Cl)cc2)cc1,-6.5,1.4,2.2,x,-2.8,x,x,x,
C/C=C/c1ccc(OCC(=O)O)c(OC)c1,-14.1,2.8,10.5,-10.3,-6.8,8.8,21.6,i,
O=C(CN1C(=O)NC2(CCCCCCC2)C1=O)NCc1ccc2c(c1)OCO2,1.7,-1.6,1.1,-11.2,14.2,1.9,0.1,i,
O=[N+]([O-])c1ccc(Oc2cccc3cccnc23)c([N+](=O)[O-])c1,-15.0,-63.7,-7.4,51.6,x,46.7,-3.0,i,
COc1ccc(CNC(=O)CCNS(=O)(=O)c2ccc3c(c2)oc(=O)n3C)cc1,x,0.7,2.6,6.4,-16.4,-14.4,-10.9,i,
O=C(Cc1cccs1)NCCc1csc(-c2ccccc2)n1,4.9,-1.1,2.4,13.7,x,3.9,14.9,i,
CCN1C(=O)/C(=C/c2nc3ccccc3c(=O)[nH]2)c2ccccc21,-8.8,-2.2,-5.6,0.6,x,-6.7,0.7,x,

# No new results follow: an excerpt of the list.
SMILES,Env fusion inh,MT1-MMP act inh,MT1-MMP act inh RFP,CSC inhib,UUG fidelity,eIF4H FP inh,PABP polyA inh,Rce1 inh,others
O=[N+]([O-])c1ccc(Oc2cccc3cccnc23)c([N+](=O)[O-])c1,-15.0,-63.7,-7.4,51.6,x,46.7,-3.0,i,
COc1ccc(CNC(=O)CCNS(=O)(=O)c2ccc3c(c2)oc(=O)n3C)cc1,x,0.7,2.6,6.4,-16.4,-14.4,-10.9,i,
O=C(Cc1cccs1)NCCc1csc(-c2ccccc2)n1,4.9,-1.1,2.4,13.7,x,3.9,14.9,i,
CCN1C(=O)/C(=C/c2nc3ccccc3c(=O)[nH]2)c2ccccc21,-8.8,-2.2,-5.6,0.6,x,-6.7,0.7,x,

# Continuation:
SMILES,Env fusion inh,MT1-MMP act inh,MT1-MMP act inh RFP,CSC inhib,UUG fidelity,eIF4H FP inh,PABP polyA inh,Rce1 inh,others
COc1cc(/C=C/C(=O)O)ccc1OS(=O)(=O)c1c(C)c(C)cc(C)c1C,-10.8,-1.4,-4.0,-1.1,-17.3,x,x,x,
CCSc1ccc(-c2nn(-c3ccccc3)cc2/C=C(/C#N)C(=O)NC)cc1,i,3.3,7.0,4.7,-4.7,-8.0,-11.4,x,
O=C1Cn2c(nc3ccccc32)N1c1cccc(C(F)(F)F)c1,-12.8,1.1,3.7,-12.8,-9.7,1.8,-2.4,i,
Cc1ccc(C(=O)COC(=O)c2cc(Cl)nc3ccccc23)cc1C,7.6,0.7,1.7,-5.4,-14.8,-10.7,-9.3,i,
COc1cc(N)c(C(=O)c2nccc3cc(OC)c(OC)cc23)cc1OC,-6.8,-1.6,-1.4,-18.6,-17.3,-0.5,13.6,i,
Cc1ccc(CN(C(=O)c2ccc(Cl)c([N+](=O)[O-])c2)C2CCS(=O)(=O)C2)o1 (centres undefined),1.5,0.6,-1.4,-15.5,0.2,-11.2,9.0,i,
CCOC(=O)C1CCCN(C(=O)c2cc3cc(F)ccc3[nH]2)C1 (centres undefined),-7.7,-1.1,-1.6,-8.4,-7.5,1.8,3.0,i,
COc1ccc(C)cc1NC(=O)c1nnn(CCc2ccccc2)c1N,-7.4,6.7,2.8,-10.1,-7.8,-12.7,6.7,i,
CC(=O)N(C)c1ccc(NC(=S)NC(=O)/C=C/c2ccco2)cc1,3.6,1.0,3.4,-5.6,-21.8,x,x,i,
O=C(CSc1nnc(C2COc3ccccc3O2)o1)NC1CCCCC1 (centres undefined),0.4,6.3,0.1,-20.0,-0.8,-14.6,3.3,i,
O=C1C[C@@H](c2ccc(O[C@@H]3O[C@H](CO)[C@@H](O)[C@H](O)[C@H]3O)cc2)Oc2cc(O)ccc21,-28.3,-0.5,-2.0,6.9,-7.9,3.3,10.9,i,
COc1cccc(CNC(=O)C2CCC(=O)N(CC3CCCCC3)C2)c1OC (centres undefined),7.4,1.7,3.2,x,-15.2,1.3,-0.4,i,
COc1ccc(NS(=O)(=O)c2ccc(-c3n[nH]c(=S)n3Cc3ccccc3)cc2)cc1,3.0,-0.1,-3.1,3.5,-27.7,-0.4,-12.8,i,
O=C(COc1ccc(Cl)cc1)OCc1ccc(Cl)cc1,18.1,1.0,2.5,x,-11.8,x,x,x,

# 2 compounds picked at random from the list so far:
SMILES,Env fusion inh,MT1-MMP act inh,MT1-MMP act inh RFP,CSC inhib,UUG fidelity,eIF4H FP inh,PABP polyA inh,Rce1 inh,others
COc1ccc(C)cc1NC(=O)c1nnn(CCc2ccccc2)c1N,-7.4,6.7,2.8,-10.1,-7.8,-12.7,6.7,i,
Cc1ccc(CN(C(=O)c2ccc(Cl)c([N+](=O)[O-])c2)C2CCS(=O)(=O)C2)o1 (centres undefined),1.5,0.6,-1.4,-15.5,0.2,-11.2,9.0,i,

# Some of the compounds tested; rates above refer to the full screens.
